Screens as filed in PubChem.
D2 ag – agonists of human D2 dopamine receptor (beta-arrestin); DiscoveRx PathHunter D2 beta-arrestin, luminescence, 90 min; 100% = 57 uM dopamine signal; activation, % (test concentration not listed); actives 0.084% (n = 360,000); AID 624465; in the data active = activation above about 40%; inconclusive = about 15% to 40%; inactive = below about 15%; also: compound concentration not given in the record; the text of the record calls up to 30% inactive
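Agonist mode: compounds alone added to overnight-plated D2 PathHunter cells for 90 min at 37 C, with 57 uM final dopamine (EC100) defining full response. Beta-arrestin recruitment detected by chemiluminescent reagent, read after 1 h at ambient temperature.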
TRPV1 potentiator – human TRPV1 potentiation. TRPV1-expressing cells, Fluo-8 calcium influx, capsaicin EC20 potentiation; host cell line not named in the record; control for the full effect not named in the record. actives 0.02% (n = 320,000). potentiation, % at 8.33 µM. Q8NER1; active means potentiation above 80%; inconclusive means 30% to 80%; inactive means below 30%; also: 0% is about no effect
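Cells expressing TRPV1 were dye-loaded with Fluo-8 and read kinetically: 10 s baseline, 3 min after compound (agonist portion), then 2 min after EC20 capsaicin (allosteric enhancer portion). Calcium-bound dye fluorescence at 480/520 nm.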
CtBP-E1A blk – CtBP/E1A binding inhibition; activity change, % (test concentration not listed); actives 0.49% (n = 340,000); AlphaScreen GST-E1A/His-CtBP binding, 1536-well; stronger effect = lower value; control for the full effect not named in the record; AID 651724; in the data active means activity change below about -65%; inconclusive means about -30% to -65%; inactive means above about -30%; also: % is scaled to controls: 0 for no effect and ±100 for the full control effect; compound concentration not given in the record
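Steps: dispense buffer (Tris pH 8.0, NaCl 300 mM, TCEP 1 mM, BSA, Tween 20); add 5X protein mix (GST-E1A, His-CtBP, 125 nM each); pin 23 nL compound; 2 h at 37 °C, dark; add 5X beads (50 ug/mL); 1 h; read.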
D2 PAM – human D2 receptor positive allosteric modulation | P14416 | DiscoveRx D2 beta-arrestin cells, luminescence, 90 min; 100% = 57 uM dopamine signal | potentiation, % (test concentration not listed) | actives 0.23% (n = 360,000); active = potentiation of 50% or more; inconclusive = 30% to 50%; inactive = 30% or less;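 also: compound concentration not given in the record; tested on top of an EC20 dose of dopamine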
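PathHunter D2 cells, attached overnight at 37 deg C, received compound in DMSO plus dopamine at EC20 (50 nM final) for 90 min at 37 deg C. Beta-arrestin recruitment was read as luminescence after 1 h with detection reagent at ambient temperature.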
Six1-Eya2 blk – Six1/Eya2 interaction inhibition. Q15475+O00167. AlphaScreen GST-Six1/His-Eya2 binding, biochemical; stronger effect = lower value; control for the full effect not named in the record. activity change, % (test concentration not listed). actives 0.56% (n = 360,000); in the data active = activity change below about -65%; inconclusive = about -30% to -65%; inactive = above about -30%; also: % is scaled to controls: 0 for no effect and ±100 for the full control effect; compound concentration not given in the record
Target sequence (O00167 whole entry, looked up): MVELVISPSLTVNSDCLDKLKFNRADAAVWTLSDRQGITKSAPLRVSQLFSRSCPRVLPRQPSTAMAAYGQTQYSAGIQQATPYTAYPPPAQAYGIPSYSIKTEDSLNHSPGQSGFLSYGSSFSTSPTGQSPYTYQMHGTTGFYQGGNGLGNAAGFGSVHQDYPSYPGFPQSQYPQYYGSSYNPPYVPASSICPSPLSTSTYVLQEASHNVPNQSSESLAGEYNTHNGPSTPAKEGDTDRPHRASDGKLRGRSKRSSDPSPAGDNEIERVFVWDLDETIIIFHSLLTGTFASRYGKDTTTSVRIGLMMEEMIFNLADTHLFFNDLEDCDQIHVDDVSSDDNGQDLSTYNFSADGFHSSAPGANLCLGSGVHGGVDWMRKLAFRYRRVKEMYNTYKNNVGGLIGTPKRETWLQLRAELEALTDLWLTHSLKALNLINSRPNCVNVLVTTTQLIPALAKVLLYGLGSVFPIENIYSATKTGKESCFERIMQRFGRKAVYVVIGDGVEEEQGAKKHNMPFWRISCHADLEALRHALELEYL
Target sequence (Q15475 whole entry, looked up): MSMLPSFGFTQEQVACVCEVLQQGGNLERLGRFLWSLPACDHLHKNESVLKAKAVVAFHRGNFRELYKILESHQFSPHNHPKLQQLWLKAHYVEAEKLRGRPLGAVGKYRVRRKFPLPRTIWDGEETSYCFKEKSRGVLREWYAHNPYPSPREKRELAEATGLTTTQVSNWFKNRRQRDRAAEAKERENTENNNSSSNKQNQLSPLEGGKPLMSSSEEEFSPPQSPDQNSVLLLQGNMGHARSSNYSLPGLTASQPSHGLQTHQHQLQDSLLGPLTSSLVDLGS
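AlphaScreen luminescence read after one hour at 37 °C in darkness. Pin-transferred compounds met GST-Six1 and His-Eya2 protein (5X stock 250 nM/500 nM) plus glutathione donor and Ni-chelate acceptor beads (5X, 50 ug/mL).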
PINK1 expr mod – modulators of PINK1 expression; PINK1 immunofluorescence, high-content cytometry, 24 h; Potency, µM (series often up to 76.6 µM), for inactives: at the top dose activation (PINK1 increase), most hits filed as activators; actives 0.2% (n = 410,000); AID 624263; active = well fitted activation curve with a large enough effect; inconclusive = small, poorly fitted or top-dose-only effect; inactive = flat fitted curve, though single readings scatter; cell line not stated here;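 also: potency is read from the fitted curve at half-maximal effect; % of control where 0% means no effect; nearly all actives have a fitted effect of over 65% in size; a mitochondrial uncoupler was the plate control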
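PINK1 protein, normally rapidly degraded, was detected by immunofluorescence after 24 hour compound treatment of a stable cell line. Titration data (5 concentrations) came from laser-scanning cytometry, with CCCP-treated wells as controls.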
Sfp inh – inhibitors of Bacillus subtilis Sfp phosphopantetheinyl transferase; Q9F4F7; Biochemical Sfp PPTase activity, qHTS; Potency, µM, for inactives: max response, negative = inhibition, usual class: inhibitors; actives 3.5% (n = 310,000); AID 1490; active = well fitted inhibition curve with a large enough effect; inconclusive = small, poorly fitted or top-dose-only effect, or another doubt; inactive = no such curve, though single readings can be large or run the other way;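 also: the enzyme is Sfp with the accession as filed and its product quenches rhodamine fluorescence; potency is read from the fitted curve at half-maximal effect; 0% = enzyme reaction without inhibitor and -100% = no enzyme wells; top concentration of the series not given in the record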
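Sfp 15 nM + cpd, 15 min RT; start w/ rhodamine-CoA 5 uM, BHQ-2-YbbR 12.5 uM (final); 50 mM Hepes pH 7.6, 10 mM MgCl2, 0.01% NP-40, 0.01% BSA; read 525/598 nm at 0 and 30 min.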
The depositor's hits bear a star; ? = inconclusive; nt = no result given; [ ] = remark or other dose. Outcome played no part in choosing rows (roughly 3.7% active in at least one column).

SMILES | D2 ag | TRPV1 potentiator | CtBP-E1A blk | D2 PAM | Six1-Eya2 blk | PINK1 expr mod | Sfp inh
O=C(COc1ccc2c3c(c(=O)oc2c1)CCCC3)NCCCN1CCCC1=O | 8.0 | 9 | -18 | -9 | -15 | -0.4% | 14%
CCCCN(C)C(=O)c1oc2ccc(S(=O)(=O)N3CCCCCC3)cc2c1C | 0.0 | -14 | 58 | -5 | 26 | 3.1%[38.3 µM] | -7%
CCc1cc(CNC(=O)CCc2nnc(CCCc3ccccc3)o2)on1 | 1.0 | 1 | 0 | -7 | 0 | 0.0% | 10%
CCc1nnc(NC(=O)C2Cc3ccccc3CN2S(=O)(=O)c2ccc(C)cc2)s1 (stereo not given) | 0.2 | ? | -17 | -2 | -10 | -5.6% | -1%
CC(NC(=O)C1CCN(Cc2ccc(Oc3ccccc3)cc2)CC1)c1cccc2ccccc12 (stereo not given) | -5.0 | nt | -28 | -16 | -19 | ? | nt
COc1ccc(C2=Nc3ccccc3NC(=O)C2N(Cc2ccc(F)cc2)C(=O)c2ccco2)cc1 (stereo not given) | -7.9 | nt | -13 | -8 | -10 | 1.5% | nt
O=C(CSc1cc(Cl)ccc1Cl)NC1CC1 | -4.9 | 1 | nt | -6 | -5 | 0.4% | nt
CC/C(O)=C(\C#N)c1nnc2n1CCCCC2 | -1.6 | -4 | 10 | 5 | -2 | 4.1%[38.3 µM] | 89µM*
O=[N+]([O-])c1cccc(-c2nnnn2-c2cccc(F)c2)c1 | 4.1 | nt | -2 | 2 | 5 | -1.5% | nt
COc1ccc(NC(=O)CSc2nnnn2C2CC2)cc1S(=O)(=O)N1CCOCC1 | 5.8 | 1 | -9 | -3 | -5 | -0.8% | nt
COc1ccc(C(C)=NNc2ccc([N+](=O)[O-])cc2S(=O)(=O)Nc2ccccc2C(=O)O)c(OC)c1 | 2.7 | nt | 0 | -5 | -6 | 14% | nt
COc1ccc(OC)c(S(=O)(=O)N2CCN(CC(O)CN3CCOCC3)CC2)c1 (stereo not given) | -1.5 | -4 | 6 | -3 | -5 | -1.8% | nt
COc1ccc(N=C2S/C(=C\c3ccco3)C(=O)N2CC(C)C)cc1 | -3.0 | 3 | -1 | -24 | -3 | 8.1% | -1%
C/C(=N\NC(=O)c1cccnc1)c1ccc(-n2ccnc2)cc1 | -4.2 | -13 | 4 | -8 | 1 | -2.4% | 10%
COCCn1nnnc1CN1CCN(c2cccc(C(F)(F)F)c2)CC1 | -1.3 | -10 | -3 | 2 | 8 | -0.4% | -3%
N#C/C(=C\c1ccc(-c2ccc([N+](=O)[O-])cc2Br)o1)C(=O)N1CCN(c2ccccc2)CC1 | 5.5 | 2 | -30 | 0 | -19 | -1.3% | 2%
COc1ccc(C2C3=C(CC(C)(C)CC3=O)Oc3ncn(CCO)c(=N)c32)cc1OC (stereo not given) | -3.4 | 0 | 7 | 10 | 3 | 4.1%[38.3 µM] | 21%
CC1(C)CC2=C(CO1)C(=S)NC(c1ccccc1)N2CC1CCCO1 (stereo not given) | -2.4 | -6 | 4 | -9 | 0 | 0.0% | -12%
CC(=O)c1ccc(S(=O)(=O)Oc2ccc(C(=O)O)cc2Cl)cc1 | -1.6 | nt | 0 | -3 | -23 | 4.2% | nt
Cn1ncc2c1ncn1nc(COc3ccc4ccccc4c3)nc21 | -0.8 | -5 | -1 | 8 | -1 | -0.5% | -11%
COc1ccc(CNC(=O)C[C@H]2C[C@H](C(=O)N3CCCCC3)[C@@]3(C)c4[nH]c5cc(-c6ccco6)ccc5c4CCN3C2=O)cc1OC | -0.1 | nt | -16 | -3 | -21 | 0.1% | nt
CCOC(=O)C1CCN(CC(C)(C)NS(=O)(=O)c2ccc(C)cc2)CC1 | -4.4 | -4 | -9 | -5 | 2 | -0.5% | -14%
O=C(NCC1CC1)c1cc([N+](=O)[O-])cc([N+](=O)[O-])c1 | 2.4 | 2 | 5 | 18 | 2 | 2.5% | -1%
Cc1ccc(NC(=O)CCC(=O)NNC(=O)/C=C/C(=O)O)c(C)c1 | -0.3 | -1 | 2 | -15 | 6 | 0.1% | -9%
O=C(Nc1ccccc1)c1ccc(NCC2CCCO2)c(S(=O)(=O)N2CCOCC2)c1 (stereo not given) | 0.8 | 2 | 1 | 13 | 1 | -0.4% | 12%
CCOc1ccccc1NC(=O)COC(=O)CCOc1cc(C)ccc1C | -6.0 | -12 | -1 | -22 | 3 | 1.2% | nt
Cc1noc(C)c1NC(=O)Nc1ccc2c(c1)C(=O)N([C@H](C)CO)C[C@H](C)[C@@H](CN(C)S(=O)(=O)c1ccc(Cl)cc1)OCCCC[C@@H](C)O2 | -3.1 | nt | -7 | -6 | -20 | -0.7% | nt
CCCC(NC(=O)c1c(C)noc1C)C12CC3CC(CC(C3)C1)C2 (stereo not given) | -5.8 | 13 | 8 | -5 | 2 | 0.6% | 17%
CC(NC(=O)C12CC3CC(C)(CC(C)(C3)C1)C2)c1ccncc1 (stereo not given) | -1.6 | -16 | 9 | -2 | 1 | -1.8% | 24%
C=CCN(c1ccc(F)cc1)S(=O)(=O)c1cc(C(=O)NC2CC2)ccc1Cl | -3.6 | nt | -7 | -9 | -4 | 3.2% | nt
O=C(O)c1ccc(N=NN2CCCCCC2)cc1 | -1.4 | -2 | -4 | -12 | 8 | 2.3% | -3%
Nc1c(N(CCO)C(=O)C2CCCC2)c(=O)[nH]c(=O)n1Cc1ccccc1 | -1.5 | nt | nt | -4 | 1 | -0.1% | nt
CC(C)CN(C(=O)CCc1ccccc1)c1c(N)n(CC(C)C)c(=O)[nH]c1=O | -5.8 | 3 | 15 | -5 | 12 | -0.6% | 5%
COc1cc(C(=O)NC(C)Cc2ccccn2)ccc1OC1CCN(C(C)=O)CC1 (stereo not given) | -2.4 | 11 | 5 | 0 | 0 | -0.3% | 14%
C/C=C/c1ccc(OCC(O)CNCCc2ccc(OC)cc2)c(OC)c1 (stereo not given) | -18 | -8 | -18 | -13 | -6 | -0.6% | 79µM*
CNC(=O)c1nc(C)n(-c2cc(Cl)ccc2Cl)n1 | -3.0 | -5 | -2 | -13 | 2 | -3.1% | -10%
CCOc1ccc(C(=O)N2CCN(c3ccccc3)CC2)cc1OCC | -1.9 | -1 | 4 | 0 | -2 | -0.3% | 9%
Cc1ccc(C(=O)N2CCN(c3cc(=O)[nH]nc3-c3ccccc3)CC2)cc1 | -2.4 | nt | 1 | -12 | -1 | -3.5% | 18%
Cc1cc(C)n2nc(SCc3ccccc3C(=O)O)nc2n1 | -0.1 | -7 | -16 | -2 | -4 | -1.8% | 15%
O=C1CSC(c2ccccc2F)N1 (stereo not given) | 2.8 | 8 | 2 | 1 | 1 | 1.7% | 0%
CCC(C(=O)Nc1cccc(OC)c1)n1nc(C)c2c(C)n(-c3ccccc3)nc2c1=O (stereo not given) | -1.2 | 3 | 1 | -4 | -2 | 1.9% | 7%
O=C(NCC(=O)N(c1cccnc1)C(C(=O)NC1CCCC1)c1ccccc1)c1ccco1 (stereo not given) | -0.2 | 9 | -1 | -6 | 13 | -0.5% | 23%
NCCNc1ccc([N+](=O)[O-])c(Sc2nc3ccccc3[nH]2)c1 | -6.3 | 10 | -16 | -39 | -22 | 12% | -2%
COc1ccc(CC(=O)NNC(=O)CCc2ccccc2)cc1 | -0.3 | -20 | 13 | -9 | -1 | -0.3% | 15%
COc1cc(NS(=O)(=O)c2c(C)[nH]c(C)c2C(=O)N2CCCCC2)cc(OC)c1OC | 3.5 | 5 | -9 | -6 | 10 | -0.8% | 4%

In the list so far, these contain an aryl thioether with sulfur outside any ring:
SMILES | D2 ag | TRPV1 potentiator | CtBP-E1A blk | D2 PAM | Six1-Eya2 blk | PINK1 expr mod | Sfp inh
O=C(CSc1cc(Cl)ccc1Cl)NC1CC1 | -4.9 | 1 | nt | -6 | -5 | 0.4% | nt
COc1ccc(NC(=O)CSc2nnnn2C2CC2)cc1S(=O)(=O)N1CCOCC1 | 5.8 | 1 | -9 | -3 | -5 | -0.8% | nt
Cc1cc(C)n2nc(SCc3ccccc3C(=O)O)nc2n1 | -0.1 | -7 | -16 | -2 | -4 | -1.8% | 15%
NCCNc1ccc([N+](=O)[O-])c(Sc2nc3ccccc3[nH]2)c1 | -6.3 | 10 | -16 | -39 | -22 | 12% | -2%

(cont.)
SMILES | D2 ag | TRPV1 potentiator | CtBP-E1A blk | D2 PAM | Six1-Eya2 blk | PINK1 expr mod | Sfp inh
Cc1cc(C)c(S(=O)(=O)NCc2cn3ccccc3n2)c(C)c1 | -27 | 18 | nt | -5 | 12 | 2.2% | 4%
COc1ccc(/C(O)=C2\C(=O)C(=O)N(CCN(C)C)C2c2cccc(OC)c2OC)cc1Cl (stereo not given) | -2.4 | 4 | 3 | -13 | 1 | -2.2% | -2%
Cc1nc2ccccn2c1C(=O)NC1CCCc2ccccc21 (stereo not given) | -2.9 | -1 | nt | -4 | 6 | -0.8% | 10%
O=C(CCCC(=O)OCC(=O)NC1CCCC1)Nc1ccccn1 | -1.1 | -1 | 1 | -11 | 3 | 3.8%[38.3 µM] | 21%
Cc1ccc2c(c1)N(CCC(=O)NCCCN1CCCC1)C(=O)C(C)O2 (stereo not given) | 2.3 | ? | -22 | -19 | -6 | 1.9% | 15%
CC1CCCN(S(=O)(=O)c2ccc3c(c2)OCCO3)C1 (stereo not given) | -1.0 | nt | 5 | -7 | 7 | -1.0% | nt
COc1cc(C(=O)NCc2ccc3c(c2)OCO3)ccc1OCc1c(C)noc1C | 1.7 | -5 | 1 | -10 | -2 | -1.6% | 3%
CCCCOC(=O)Nc1ccc(C(=O)OC)cc1 | 1.4 | -4 | 14 | -6 | 4 | 4.9%[38.3 µM] | 11%
Cc1ccccc1NC(=O)C(C)OC(=O)C1CCCO1 (stereo not given) | -2.0 | nt | 2 | -8 | 10 | 0.3% | nt
O=C(O)c1cccc(CSc2nnc(-c3ccc(Cl)cc3)o2)c1 | 1.1 | 3 | nt | 0 | -1 | -1.4% | 5%
CCN1C/C(=N\S(=O)(=O)/N=C2\CN(CC)C(=O)N2CC)N(CC)C1=O | -3.8 | 10 | 8 | -1 | 0 | 0.7% | 16%
Cc1ccccc1NC(=O)Cc1nc(CCl)cs1 | -5.0 | 2 | -20 | -17 | -5 | -1.0% | -29%
